hNpr1 antagonist: human Npr1 receptor antagonism | P16066 | Potency, µM (titrated, usually from 46.3 µM), for inactives: at the highest dose activity change, negative = inhibition, actives largely listed as inhibitors | actives 1.6% (n = 76,000) | HEK293 hNpr1 GloSensor cGMP, ANP-stimulated luminescence | AID 1347048; active = well fitted inhibition curve with a large enough effect; inconclusive = small, poorly fitted or top-dose-only effect; inactive = no such curve, though single readings can be large or run the other way;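 note: nearly all actives have a fitted effect of over 60% in size; nearly all hits also lower the signal before the agonist is added; a reference antagonist and vehicle were the controls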
Target sequence (P16066 whole entry, looked up): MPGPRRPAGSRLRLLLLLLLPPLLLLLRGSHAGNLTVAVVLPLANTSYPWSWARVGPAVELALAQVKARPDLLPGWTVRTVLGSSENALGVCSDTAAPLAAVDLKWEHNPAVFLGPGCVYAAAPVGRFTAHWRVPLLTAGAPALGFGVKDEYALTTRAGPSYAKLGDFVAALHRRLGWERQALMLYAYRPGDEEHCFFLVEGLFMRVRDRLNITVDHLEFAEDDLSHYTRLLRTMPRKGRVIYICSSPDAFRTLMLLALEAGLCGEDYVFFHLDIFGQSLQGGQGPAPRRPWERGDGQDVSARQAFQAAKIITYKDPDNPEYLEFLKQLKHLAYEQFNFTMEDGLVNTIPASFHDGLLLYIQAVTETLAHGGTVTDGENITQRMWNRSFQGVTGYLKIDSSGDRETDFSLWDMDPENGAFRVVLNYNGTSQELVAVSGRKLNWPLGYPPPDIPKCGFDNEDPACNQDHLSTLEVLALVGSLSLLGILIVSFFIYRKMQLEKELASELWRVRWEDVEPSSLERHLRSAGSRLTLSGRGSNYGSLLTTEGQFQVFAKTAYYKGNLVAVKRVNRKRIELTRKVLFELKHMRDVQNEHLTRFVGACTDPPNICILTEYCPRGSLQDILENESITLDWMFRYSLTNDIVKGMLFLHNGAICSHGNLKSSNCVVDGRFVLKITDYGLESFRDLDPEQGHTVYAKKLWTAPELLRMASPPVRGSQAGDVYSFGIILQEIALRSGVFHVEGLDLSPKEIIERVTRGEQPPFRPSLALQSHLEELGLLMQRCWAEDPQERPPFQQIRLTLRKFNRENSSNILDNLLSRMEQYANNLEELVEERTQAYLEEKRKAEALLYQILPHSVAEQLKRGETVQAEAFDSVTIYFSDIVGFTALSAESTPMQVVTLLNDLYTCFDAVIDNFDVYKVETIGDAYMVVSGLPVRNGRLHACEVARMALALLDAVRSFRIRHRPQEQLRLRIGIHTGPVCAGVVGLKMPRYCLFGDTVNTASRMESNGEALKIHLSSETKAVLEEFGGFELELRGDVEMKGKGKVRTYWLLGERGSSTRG
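Compound pre-incubated 30 min at room temperature on GloSensor-loaded HEK293 cells stably carrying hNpr1 and the pGS-40F cGMP biosensor. Stimulation uses hNppA at 0.1 nM final; luminescence is taken at baseline and 20 min post-agonist.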
The depositor's hits bear a star; ? = inconclusive; [ ] = remark or other dose. % is set by controls: 0 for no effect and ±100 for the full control effect; potency is the fitted concentration of half-maximal effect. Some of the compounds tested, so the mix of outcomes need not match the whole.

hNpr1 antagonist | mol
-17.9% | C=CCOC(=O)C1=C(C)N=C2SC=C(CC(=O)NCC3CC3)N2C1c1cccc(OC)c1OC (centres undefined)
1.1% | COc1ccc(C(=O)N2CCC(N3CC4CC(C3)[C@H]3CCCC(=O)N3C4)CC2)cc1 (some centres undefined)
? | COc1cccc(CNC(=O)c2cccc3c2CCN3C(=O)c2ccc(F)cc2)c1
-3.0%[70.6 µM] | COc1ccc(-c2[nH]nc3ncc(-c4cccnc4)nc23)cc1F
-1.9%[70.6 µM] | O=C1[C@@H]2C[C@@H](O)CN2C2(CN(Cc3cccs3)C2)C(=O)N1Cc1ccccc1F
2.6% | O=C(c1cc(F)ccc1F)N1CCCC(Cc2noc(-c3ccccc3)n2)C1 (centres undefined)
3.8% | CS(=O)(=O)c1ccc(CN2CCOC[C@H]2c2ncc(-c3ccc(C(F)(F)F)cc3)[nH]2)cc1
-6.7% | CC(C)(C)NC(=O)N1CCC(Oc2ncccc2C(=O)N2CCOCC2)C1 (centres undefined)
5.2% | COc1ccc(OC)c(S(=O)(=O)NCC(=O)N2CCCCCNC(=O)CC2c2ccccc2)c1 (centres undefined)
3.7% | CCC(C)NC(=O)C(NC(=O)c1ccc(C)cc1)C1CCN(C(=O)c2cccc(F)c2)CC1 (centres undefined)
-2.9% | CCc1noc([C@@H]2CC(F)(F)CN2C(=O)c2ncccn2)n1
2.2%[70.6 µM] | Cc1ccc2oc([C@H]3CCN(Cc4ccc(C(=O)O)cc4)C3)nc2c1
-10.1% | COCCN1Cc2ccc(NCc3ccccc3)nc2C(C)(C(=O)NCc2ccccc2)C1 (centres undefined)
1.3% | Cc1ccc(-c2[nH]ncc2CN)cc1C
-0.8% | COCCn1c(CO)nnc1C1CC(NC(=O)c2cccn2C2CC2)C1 (centres undefined)
8.2% | COCCCNC(=O)C1(C)CN(Cc2ccccc2)Cc2ccc(Nc3ccccc3)nc21 (centres undefined)
1.4%[70.6 µM] | CC(C)N1CCC(O)(c2csc(CN3CC[C@@H](O)C3)n2)CC1
1.1% | CCCn1ccc2oc(C)c(C(=O)NCc3ccc(CC)cc3)c2c1=O
-5.1%[70.6 µM] | CN(Cc1cccc(C(F)(F)F)c1)C(=O)c1cccc(Cl)c1
? | Cc1ccc(Cn2c(C3CCN(C(=O)c4ccc(C(C)(C)C)cc4)CC3)n[nH]c2=O)cc1
1.4% | O=C(NC1CCN(c2cnn(Cc3ccccc3)c(=O)c2)CC1)C1CCOC1 (centres undefined)
5.3% | Cc1cccc(NC(=O)N2CC3CC(C2)[C@H]2CCCC(=O)N2C3)c1 (some centres undefined)
-2.7% | O=C1NCCCCCN(Cc2cccc(F)c2)[C@H]2CCC[C@@H]12
8.7% | OC1CCC(c2nc(C3CCOC3)n[nH]2)CC1 (centres undefined)
7.4% | N[C@H]1CCC[C@@H](C(=O)NCc2nc(-c3cccc(F)c3)c(-c3ccccn3)[nH]2)C1
0.0% | O=C(c1ccccn1)N1CCn2c(nn(-c3ccc(F)cc3F)c2=O)C1
1.8% | CCc1[nH]c2ccc(CNC(=O)c3coc(CN4CCOCC4)c3)cc2c1C
2.4% | CC(=O)Nc1ccc(C2(C(=O)NCc3ccc(Cl)cc3)CCC2)cc1
4.6% | O=C1NCCCCCN(Cc2cn[nH]c2-c2ccc(F)cc2)[C@H]2CCC[C@@H]12
-12.1% | COCCNC(=O)[C@H]1C[C@H](Oc2ccccc2)CN1C(=O)NC1CCCCC1
6.3% | CCO[C@H]1CN(C(=O)c2cn3cc(Cl)ccc3n2)C[C@@H]1O
2.6%[70.6 µM] | Cc1noc2c(-c3cccnc3NC3CCC(O)CC3)cc(-c3ccccc3)nc12 (centres undefined)
-7.9% | O=C(c1ccccc1F)N1CCC[C@H]1c1nc(-c2ccccc2)no1
0.316µM* | O=C(O)c1cccc2c1CCN2C(=O)Nc1ccc(F)cc1
-0.5% | Cn1cccc1C(=O)N1CCC(n2cc(-c3nc(C4CC4)no3)nn2)C1 (centres undefined)
6.5% | O=C(CCc1nnn2c1CNCC2)NC1CC1
0.4%[70.6 µM] | C[C@@H](NC(=O)c1ccccc1)c1onc(-c2ccc(F)cc2)c1C(=O)O
1.6% | O=C(CCC[C@@H]1[C@H]2CCCN3CCC[C@@H](CN1Cc1cccnc1)[C@@H]23)Nc1cccnc1
-1.1% | CCN1CCNC(=O)C1CC(=O)N1CCn2nc(Cc3ccccc3)cc2C1 (centres undefined)
-0.3%[70.6 µM] | COC(=O)[C@@H]1Cc2ncn(C)c2CN1S(=O)(=O)c1cccc(C(F)(F)F)c1
-11.2% | COc1cc(OC)cc(C(=O)N2CCC3(CC2)NC(=O)N(Cc2ccc(F)cc2)C3=O)c1
-6.6% | Cc1nc2cccnc2n1CC1CCCN(C(=O)Nc2cccc(C(F)(F)F)c2)C1 (centres undefined)
-0.8% | Cn1c(CN2Cc3[nH]cnc3C[C@H]2C(=O)NCc2ccc(C(F)(F)F)cc2)nc2ccccc21
4.7% | Cc1nn(C)c(C)c1CCC(=O)N1CC[C@](C)(O)[C@@H](O)C1
4.9% | CCOc1cc(=O)n2c(c1C(=O)Nc1ccc(F)cc1C)CCCCC2
3.2% | O=C(CCCN1CCCCC1=O)N[C@@H]1[C@@H]2CCO[C@@H]2[C@@H]1C1CCCC1
4.0% | CN(Cc1nccn1Cc1ccccc1)C(=O)c1cccc(-n2cnnc2)c1
-0.8% | Cn1ccnc1CNC(=O)C[C@@H]1C[C@H]2O[C@H](CNC(=O)NC3CCCCC3)[C@@H](O)[C@H]2O1
5.8% | NC1CCCCN(C(=O)CCN2CCc3ccccc32)C1 (centres undefined)
3.1% | COc1ccc(-c2[nH]ncc2C(=O)N2CC[C@H](CO)[C@H](NC(=O)C3CC3)C2)cc1
3.5% | O=C1CC(c2ccccc2)N(C(=O)C2CC2)CCCN(S(=O)(=O)c2cccnc2)CCN1 (centres undefined)
0.0% | CCN1c2cc(C(=O)NCc3ccccc3OC)ccc2C(=O)N2CCCCCC21 (centres undefined)
19.1%[70.6 µM] | COC(=O)CNC(=O)C1CN(c2ccccc2)C(=O)N1 (centres undefined)
? | Cc1ccc(CN2C[C@H]3CN(Cc4ccc(OC(F)(F)F)cc4)CCN3C2=O)cc1
4.4% | O=C(NC[C@H]1O[C@@H](CC(=O)N2CCN(c3ccccn3)CC2)[C@H](O)[C@@H]1O)NC1CCCCC1
3.2%[70.6 µM] | O=C1Cc2c(-c3cccc(C(F)(F)F)c3)n[nH]c2CN1CCc1ccncc1
-10.0% | COc1ccc(NC(=O)N2CCCC(Cc3noc(-c4cccnc4)n3)C2)cc1 (centres undefined)
4.5%[70.6 µM] | COc1ccc2nc(CO[C@H]3CN(Cc4ncccc4C)C[C@H]3F)[nH]c2c1
-0.3% | Cn1ccc(C(=O)N[C@@H]2COCC[C@H]2Oc2ccc(CO)cc2)cc1=O
6.1% | CC(C)c1ccccc1NC(=O)Cn1ccn2nc(-c3ccc(F)cc3)c(CO)c2c1=O

Next part:
hNpr1 antagonist | mol
-17.3% | O=C(C1CCC1)N1CCC2(CC1)CC(Cc1nc(C3CC3)no1)CCO2 (centres undefined)
0.6% | CN(C)C[C@@H]1CN(c2ncccn2)C[C@H]1NC(=O)c1ccccc1F
10µM* | COc1ccc(OCC(=O)N2CCC(Cc3nc(-c4ccc(OC)cc4)no3)CC2)cc1
-20.1% | c1ccc(OCc2noc(-c3ccc(NCC4CCCCO4)nc3)n2)cc1 (centres undefined)
-2.6% | CCn1c(C2CCCN(C(=O)C(C)C)C2)nn(C)c1=O (centres undefined)
-1.7% | COc1cccc(-c2nc(C3CC(=O)N(C4CCCCC4)C3)no2)c1 (centres undefined)
-7.6% | Cc1ccccc1-c1cc(O)c2c(c1)CN(Cc1nccn1C)CCO2
-23.1% | Cc1nn(-c2ccc(F)cc2)c(Oc2ccccc2F)c1CCC(=O)NCC1CC1
-8.2% | CCOc1ccccc1CN1CCC(C)(c2noc(C3CCOCC3)n2)CC1
-23.8% | COC(=O)C1=C(C)N=C2SC=C(CC(=O)Nc3ccc(F)cc3)N2C1c1ccc(OC)cc1OC (centres undefined)
-0.2% | CCc1ccccc1NC(=O)N1CC(c2nnc(-c3ccncc3)o2)C2(CCOCC2)C1 (centres undefined)
? | CCc1noc(CC2CCOC3(CCN(S(=O)(=O)c4cc(F)ccc4C)CC3)C2)n1 (centres undefined)
-6.8% | Cc1nc(C(=O)N2CC[C@H](NC(=O)c3snnc3C)C[C@H]2C(=O)N[C@H](CC(C)C)C(N)=O)cs1
35.5µM* | COc1ccc(NC(=O)Cc2c[nH]c3ncc(-c4ccccc4C)cc23)cc1
-3.0% | OC1CCOC2(CCN(Cc3ccccc3OC(F)(F)F)CC2)C1 (centres undefined)
? | N#Cc1ccc(C(=O)N2CCC3(CC2)NC(=O)N(Cc2cccc(Cl)c2)C3=O)cc1
2.6% | COc1ccc(-c2noc(-c3nnn4c3COC(c3ccc(C)cc3C)C4)n2)cc1 (centres undefined)
11.0% | Cc1ccn(CC(=O)N2C[C@@H](CO)[C@H](c3nc(C4CC4)no3)C2)n1
-2.1%[70.6 µM] | CC(C)NC(=O)c1cnc2n[nH]c(-c3ccccc3)c2n1
2.9%[70.6 µM] | CCn1c2c(c(=O)n1Cc1ccccc1)CCN(C(=O)c1scnc1C)C2
-18.8%[70.6 µM] | O=C(NCc1cccs1)c1c[nH]c2ncccc12
4.4% | CCC(CC)N1CC[C@H](CO)[C@H](NC(=O)c2ccccc2)C1
-3.8% | O=S(=O)(c1cccc(F)c1)N1CCCC(Cn2c(C3CC3)nc3cccnc32)C1 (centres undefined)
-0.4% | Cc1ccc(C2Cn3nnc(C(=O)N4CCC(C(=O)NCC5CCCCC5)CC4)c3CO2)cc1 (centres undefined)
-17.7% | COc1ccccc1C(=O)Nc1ccc2c(c1)CN(Cc1ccccc1)C(=O)C(C)O2 (centres undefined)
-5.6% | CC(C)CCN1C(=O)CC[C@]2(C(=O)NCc3cccnc3)CCCC[C@@H]12
3.7%[70.6 µM] | Cc1ncsc1C(=O)N1CCCn2nc(C)c(-c3ccccc3-c3ccccc3)c21
-17.3% | O=C(COc1ccccc1)N1CCC2(CC1)NC(=O)N(c1cccc(F)c1)N2
-2.2% | COc1cccc([C@@H]2CN(C(=O)c3oc(C)nc3C)C[C@H]2C(=O)O)c1OC
-1.9% | O=c1c2ccccc2cnn1Cc1nc(C2CCOC2)no1 (centres undefined)
4.7%[70.6 µM] | CC1(C)[C@H](Cc2cc(CO)on2)C[C@@H]1NC(=O)C1CCC1
-3.0% | CN1CCC(NC(=O)C2(C)CN(Cc3ccccc3)Cc3ccc(Nc4ccccc4)nc32)CC1 (centres undefined)
-28.5%[70.6 µM] | COc1ccc(-c2noc([C@@H]3C[C@H](NCc4cccc(C#N)c4)CN3C)n2)cc1
0.3% | CCN1CC(C(=O)N2CCC(OCc3ccccn3)CC2)CCC1=O (centres undefined)
4.3%[70.6 µM] | COc1ccc(CNC[C@H]2Cn3ccnc3CO2)cn1
-0.6% | COc1ccc(C2Cn3cnc(C(=O)N4CCC(C(=O)NC(C)C)CC4)c3CO2)cc1 (centres undefined)
1.1% | COCc1ccc(C(=O)N2CCCC(CCc3cccc(OC)c3)C2)o1 (centres undefined)
3.4%[70.6 µM] | CNC(=O)CCn1ncc2cc(OC3CCc4cccc(-c5ccncc5)c43)ccc21 (centres undefined)
1.9%[70.6 µM] | CC(=O)N1CCC(NC2(Cc3cc(CN(C)Cc4ccccc4)on3)COC2)CC1
-23.8%[70.6 µM] | Cc1ccc(-n2nc(C)c([C@@H]3C=C[C@@H](NC(=O)c4cccs4)C3)c2C)cc1Cl
-0.1% | O=C(c1ccccc1)N1CCC(Cc2nc(-c3ccncc3)n[nH]2)CC1
2.3% | CCc1cc(N2C[C@H]3CN(C4CCOCC4)C[C@@]3(C(=O)O)C2)nc(C)n1
-0.7% | Cc1ccccc1CC(=O)N1[C@@H]2CC[C@H]1CC(NC(=O)c1ccncc1)C2 (some centres undefined)
2.4%[70.6 µM] | CC1(C(=O)NCc2cccnc2)CCCc2cnc(Nc3ccccc3F)nc21 (centres undefined)
2.4% | CN(C)c1cccc(C(=O)Nc2ccc(-c3nnc4n3CCCC4)cc2)c1
-1.4% | CS(=O)(=O)N[C@@H]1[C@@H](NC(=O)CCC2=NNC(=O)CC2)[C@H]2CCO[C@H]21
-1.8% | c1cc(CN2CCOCC2)cc(-c2cnn3ccccc23)c1
-6.0% | COc1cccc(CNC(=O)[C@@H]2C[C@@H](O)CN2C2CCN(C(=O)c3cccc(OC)c3)CC2)c1
? | COc1ccc(CN2C(=O)CO[C@H]3CN(Cc4c[nH]c5ccccc45)C[C@H]32)cc1

Reformatted in markdown: part of the list above
| Structure | hNpr1 antagonist |
| --- | --- |
| CN(C)c1cccc(C(=O)Nc2ccc(-c3nnc4n3CCCC4)cc2)c1 | 2.4% |
| CS(=O)(=O)N[C@@H]1[C@@H](NC(=O)CCC2=NNC(=O)CC2)[C@H]2CCO[C@H]21 | -1.4% |

5 entries from above, with bars between the fields.
SMILES | hNpr1 antagonist
Cn1ccnc1CNC(=O)C[C@@H]1C[C@H]2O[C@H](CNC(=O)NC3CCCCC3)[C@@H](O)[C@H]2O1 | -0.8%
NC1CCCCN(C(=O)CCN2CCc3ccccc32)C1 (centres undefined) | 5.8%
COc1ccc(-c2[nH]ncc2C(=O)N2CC[C@H](CO)[C@H](NC(=O)C3CC3)C2)cc1 | 3.1%
O=C1CC(c2ccccc2)N(C(=O)C2CC2)CCCN(S(=O)(=O)c2cccnc2)CCN1 (centres undefined) | 3.5%
CCN1c2cc(C(=O)NCc3ccccc3OC)ccc2C(=O)N2CCCCCC21 (centres undefined) | 0.0%
